FGF22 binding: binders of human FGF22 protein, primary screen, FGF22 synaptogenesis inhibitor project, biophysical, thermal shift, single point; Fibroblast growth factor 22 (Homo sapiens), Q9HCT0; recombinant FGF22 thermal shift, SYPRO orange fluorescence; percent of sucrose octasulfate shift, DMSO zero; calls only at 9.99 µM; 340,000 tested, 1.5% active;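 active means melting point raised past a set limit in the mean and every replicate; three in four hits are not shown here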
Target sequence (Q9HCT0 whole entry, looked up): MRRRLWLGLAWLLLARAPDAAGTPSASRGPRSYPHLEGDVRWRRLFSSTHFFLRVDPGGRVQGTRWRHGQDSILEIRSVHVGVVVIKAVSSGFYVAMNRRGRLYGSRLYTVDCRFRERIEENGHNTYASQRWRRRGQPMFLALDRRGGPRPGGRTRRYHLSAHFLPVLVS
Ecoli rRNA inh: reduced GFP signal of wild-type E. coli, primary screen, bacterial rRNA inhibitor project, GFP/RFP fluorescence, OD600, single point; E. coli WT GFP vs humanized-ribosome RFP mutants, 24 h; hits give low values; DMSO median 0, no signal -100; 350,000 tested, 1.6% active; GFP signal change (wild-type ribosome), % (concentration not given with the values);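 active means significant combined selectivity score with lowered wild-type GFP, culture density cut under 30%, mutant RFP and density less affected; inactive means any of these conditions unmet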; further: one replicate is shown; some compounds called inactive have numbers as strong as hits
B2AR ag: beta2AR agonists driving receptor internalization, primary screen, cell-based, FAP fluorogen, flow cytometry. Beta-2 adrenergic receptor (Homo sapiens), P07550. Am2.2-beta2AR cells; reference of the scale not given here. response, % (test concentration not listed). 340,000 tested, 0.43% active;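 active means response above a set limit, near 3 SD of response in nonfluorescent compounds, cut at about 42% in these data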;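 further: stock transfer was 100 nL into about 11 µL; a reference agonist was the positive control; negative values mostly stem from fluorescent compounds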
HNF4A DNA FP: change in binding of human HNF4A to DNA, primary screen, biochemical, fluorescence polarization, FITC-DNA; Hepatocyte nuclear factor 4-alpha (Homo sapiens), P41235; 1 h; activity change, % at 10 µM; 360,000 tested, 0.3% active; in the data active means activity change above about 30%, passing the limit was not always enough;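 further: controls were the assay level and a saturating level of protein; the project sought stronger binding though the title names inhibitors; some compounds called inactive have numbers as strong as hits; positive values seem to mean higher polarization but the record does not say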
Target sequence (P41235 whole entry, looked up): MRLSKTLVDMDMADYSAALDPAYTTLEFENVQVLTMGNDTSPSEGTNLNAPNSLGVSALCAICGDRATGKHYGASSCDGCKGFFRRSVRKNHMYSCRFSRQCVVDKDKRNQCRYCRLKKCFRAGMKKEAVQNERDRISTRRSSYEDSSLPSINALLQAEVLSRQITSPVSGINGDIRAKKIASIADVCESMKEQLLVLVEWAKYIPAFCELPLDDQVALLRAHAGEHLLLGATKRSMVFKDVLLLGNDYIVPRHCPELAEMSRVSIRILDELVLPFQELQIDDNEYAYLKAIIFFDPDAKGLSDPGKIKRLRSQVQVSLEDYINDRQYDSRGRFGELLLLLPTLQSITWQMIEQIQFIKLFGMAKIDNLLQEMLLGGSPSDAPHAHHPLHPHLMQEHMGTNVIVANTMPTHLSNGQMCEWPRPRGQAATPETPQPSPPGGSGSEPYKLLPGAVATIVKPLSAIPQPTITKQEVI
ALR H2O2 inh: inhibitors of human ALR sulfhydryl oxidase, primary screen, biochemical, H2O2 detection, HRP-luminol luminescence, single point. FAD-linked sulfhydryl oxidase ALR (Homo sapiens), P55789. purified ALR, DTT oxidation. inhibition, % (concentration not given with the values). 290,000 tested, 3.8% active. AID 485317, 2010;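 active means mean and each replicate at 75% or more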;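 further: stock transfer was 7.5 nL into about 7.5 µL; 0% = neutral wells and 100% = wells with inactivated enzyme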
Target sequence (P55789 whole entry, looked up): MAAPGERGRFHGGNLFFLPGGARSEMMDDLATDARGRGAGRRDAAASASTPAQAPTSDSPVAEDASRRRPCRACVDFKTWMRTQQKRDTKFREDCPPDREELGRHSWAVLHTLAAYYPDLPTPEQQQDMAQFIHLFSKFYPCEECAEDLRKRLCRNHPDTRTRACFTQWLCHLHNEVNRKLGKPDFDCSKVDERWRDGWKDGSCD
UCH37 DUB inh: inhibitors of human UCH37 deubiquitinase, primary screen, biochemical, Ub-AMC cleavage, fluorescence. AID 588478, 2011. 330,000 tested, 0.33% active. Ubiquitin carboxyl-terminal hydrolase isozyme L5 (Homo sapiens), Q9Y5K5. inhibition, % (concentration not given with the values). purified proteasome/UCH37;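 active means mean of two replicates above 20%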;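 further: 0% = compound-free wells with enzyme and 100% = wells lacking proteasome; stock transfer was 100 nL into about 20 µL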
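Reagent: Ub-AMC substrate; assay system: Proteasome-associated human UCH37 deubiquitinase; controls: no-proteasome and no-compound wells; read-out: % inhibition of Ub-AMC cleavage fluorescence; timing: 30 min preincubation with enzyme, 25 min cleavage at room temperature; signal: AMC fluorescence from Ub-AMC cleavage, excitation 355 nm, emission 460 nm; buffer or medium: Tris-HCl pH 7.4 plus ovalbumin, ATP-MgCl2, DTT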
Ecoli growth: E. coli growth inhibition, primary screen, OD600. Escherichia coli growth, 23 h; hits give low values. OD600 absorbance (test concentration not listed). 330,000 tested, 0.21% active. AID 1053175, 2014;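 active means OD600 absorbance below the run mean of sample wells minus 3.6 SD, in any replicate, cut at about 0.56 in these data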;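 further: stock transfer was 300 nL into about 60 µL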
Ecoli rRNA inh OD600: also measured in Ecoli rRNA inh; calls as there; OD600 change, %; measured here: OD600 growth;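 optical density of the mix in the first replicate; 0 = DMSO median and -100 = no signal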
Ecoli rRNA inh RFP: second read-out of Ecoli rRNA inh, no call of its own (marks repeat the call); RFP signal change, %; measured here: RFP humanized mutant strains;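 first replicate; 0 = DMSO median and -100 = no signal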
* hit, by the source's call; i = inactive; . = not tested or not shown. Some of the compounds tested; count on the stated rates, not on these rows.

compound,FGF22 binding,Ecoli rRNA inh,Ecoli rRNA inh OD600,Ecoli rRNA inh RFP,B2AR ag,HNF4A DNA FP,ALR H2O2 inh,UCH37 DUB inh,Ecoli growth
CC(=O)Nc1cccc(NC(=O)CCCC2CCCCC2)c1,i,-11,-28,-10,-2,-0.7,-1,1.4,0.69
Cc1cccc(Cn2c(=O)c3c(nc4n3CCN4Cc3ccco3)n(C)c2=O)c1,.,.,.,.,-8,0.4,0,5.6,0.71
Cc1ccccc1-n1c(SCC(=O)Nc2cccc3ccccc23)nc(O)cc1=O,i,4,-1,2.4,2,-0.7,60,0.1,0.67
COc1ccc(NC(=O)/C(C#N)=C/c2c(C)nn(-c3ccc(F)cc3)c2Cl)cc1OC,i,5,6,4.1,21,-1.0,9,4.9,0.69
CC(C)(C)NC(=O)c1cccc(NC(=O)c2ccco2)c1,.,.,.,.,-4,-0.7,-3,1.1,0.71
Cc1cccc(NC(=S)NCC2CCCO2)c1 (stereo unspecified),.,.,.,.,4,4.8,-6,1.4,0.78
O=C(NCC1CCCO1)C1CCC(=O)N1CCc1ccccc1 (stereo unspecified),.,.,.,.,8,-2.2,.,2.9,0.74
COc1ccc(F)cc1C(=O)C1CCCN(C(=O)CCc2ccccn2)C1 (stereo unspecified),i,12,3,2.0,-3,1.8,-8,2.4,0.71
C/C(=N/NC(=O)CNC(=O)Cc1ccccc1)c1ccco1,i,9,12,1.9,9,-5.5,-1,.,.
Cc1ccc(CNC(=O)c2ccc(Cn3nc(C)cc3C)o2)cc1,i,1,12,-0.2,3,2.5,-3,4.5,0.69
O=C(Nn1cnnc1)c1ccc([N+](=O)[O-])cc1Cl,i,6,8,-0.9,2,1.0,7,3.2,0.65
Cc1ccsc1/C=C1\SC(N2CC(C)OC(C)C2)=NC1=O (stereo unspecified),.,.,.,.,2,0.8,100*,9.8,0.65

Some of these compounds in order of molar mass, smallest number first.
compound,FGF22 binding,Ecoli rRNA inh,Ecoli rRNA inh OD600,Ecoli rRNA inh RFP,B2AR ag,HNF4A DNA FP,ALR H2O2 inh,UCH37 DUB inh,Ecoli growth
C/C(=N/NC(=O)CNC(=O)Cc1ccccc1)c1ccco1,i,9,12,1.9,9,-5.5,-1,.,.
O=C(NCC1CCCO1)C1CCC(=O)N1CCc1ccccc1 (stereo unspecified),.,.,.,.,8,-2.2,.,2.9,0.74
Cc1ccccc1-n1c(SCC(=O)Nc2cccc3ccccc23)nc(O)cc1=O,i,4,-1,2.4,2,-0.7,60,0.1,0.67

Later entries
compound,FGF22 binding,Ecoli rRNA inh,Ecoli rRNA inh OD600,Ecoli rRNA inh RFP,B2AR ag,HNF4A DNA FP,ALR H2O2 inh,UCH37 DUB inh,Ecoli growth
Cc1cc(N2CCN(c3ccccc3F)CC2)nc2cc(O)ccc12,.,-26,-57,1.3,5,-0.9,.,-86,0.66
CCC(=O)Nc1ccc(-n2nnnc2SCC(=O)NNC(=O)c2ccco2)cc1,.,14,13,-6.1,.,.,-1,0.8,0.68
CCN(CC(=O)Nc1ccc(N2CCOCC2)cc1)C(=O)c1ccc(C(F)(F)F)cc1,i,7,17,-2.0,-3,1.3,-13,3.8,0.68
CCC(C)n1c(SCC(=O)NC2CCCC2)nc2ccccc2c1=O (stereo unspecified),i,-8,-6,-3.8,-4,-1.9,4,6.7,0.67
Cc1cccc(C(=O)NC(CC(=O)O)c2ccc(OC3CCCC3)cc2)c1[N+](=O)[O-] (stereo unspecified),.,7,6,0.7,-6,-1.0,-12,1.8,0.66
CCNC(=O)C1(C)CCCN1C(=O)c1ccc(F)c(Cl)c1 (stereo unspecified),i,6,6,1.9,.,4.5,.,.,.
COc1ccc(OC)c(NC(=O)CCNC(=O)N2CC(=O)Nc3ccccc32)c1,i,7,10,2.3,.,-0.7,.,.,.
CC1Sc2ccc(S(=O)(=O)CCC(=O)NCc3ccccc3Cl)cc2NC1=O (stereo unspecified),.,.,.,.,5,0.8,-4,-0.8,0.68
Cc1ccc(N(CC(=O)NCc2ccco2)S(=O)(=O)c2ccccc2)cc1,.,.,.,.,0,-5.3,19,3.8,0.74
Cn1c2ccccc2c2nnc(SCC(=O)NC3CCCC3)nc21,i,2,12,0.1,-20,3.6,-5,6.7,0.65
Cc1cc(OCC(=O)Nc2ccccc2N2CCOCC2)c(C(C)C)cc1Cl,i,7,11,2.4,3,0.5,-2,3.2,0.66
Cc1cccc(CN2[C@H](CO)C=CS2(=O)=O)c1,i,1,13,-6.2,.,6.1,.,.,.

Next section:
compound,FGF22 binding,Ecoli rRNA inh,Ecoli rRNA inh OD600,Ecoli rRNA inh RFP,B2AR ag,HNF4A DNA FP,ALR H2O2 inh,UCH37 DUB inh,Ecoli growth
CCCC/C(C)=N/NC(=O)C(=O)NCCc1ccccc1,.,.,.,.,4,-1.4,1,.,.
CC(C)(O)C(=O)N/N=C\c1ccc(OC/C=C/c2ccccc2)cc1,i,1,2,0.0,12,-1.3,-23,.,.
O=C(Oc1cccccc1=O)c1ccccc1,i,0,4,-0.8,-6,-3.7,56,-0.3,0.65
O=C(C1CCC(=O)N1Cc1ccccc1Cl)N1CCN(c2cccc(Cl)c2)CC1 (stereo unspecified),.,.,.,.,3,-2.1,1,-2.7,0.73
O=C(Nc1ccc(S(=O)(=O)Nc2cnc3ccccc3n2)cc1)c1cccc(OC(F)F)c1,i,1,0,-0.8,10,1.1,.,-17,0.69
CC(=O)c1ccc(Oc2ncnc3sccc23)c(CN2CCOCC2)c1,.,.,.,.,-9,0.0,-12,-1.5,0.74
COc1ccc(/C=C2\C(=N)N3N=C(CC(=O)N4CCCCC4)SC3=NC2=O)cc1,i,4,15,-1.4,-5,0.8,80*,9.1,0.62
COc1ccc2nc(-c3ccccc3)cc(C(=O)OCC(=O)N3CCCCC3)c2c1,i,.,.,.,5,-2.5,-13,-321,0.7
COc1ccc2cc(/C=C3\SC(=S)NC3=O)c(N3CCOCC3)nc2c1,i,.,.,.,19,24,71,17,0.71
COC(=O)C1CCN(C(=O)c2ccc(OC)c(S(=O)(=O)N3CCCc4ccccc43)c2)CC1,i,-14*,-12*,6.2*,2,2.2,-2,3.4,0.69
CCOc1ccc(NC(=O)CN(C)C(=O)/C=C/c2ccco2)cc1OCC,i,.,.,.,4,2.4,2,1.5,0.65
Cc1cn([C@H]2C[C@H](O)[C@@H](CCC(=O)NCCc3c[nH]c4ccccc34)O2)c(=O)[nH]c1=O,i,.,.,.,3,-0.5,.,2.3,0.7

Next compounds.
compound,FGF22 binding,Ecoli rRNA inh,Ecoli rRNA inh OD600,Ecoli rRNA inh RFP,B2AR ag,HNF4A DNA FP,ALR H2O2 inh,UCH37 DUB inh,Ecoli growth
COc1ccccc1OCC(=O)N1CCNC1=O,i,7,7,-1.0,4,-5.0,.,5.6,0.71
O=C(CN1NS(=O)(=O)c2ccccc2C1=O)Nc1ccccc1OC(F)F,.,.,.,.,5,-0.5,-2,-1.9,0.69
COc1ccc(CCNC(=O)Cn2cccc2C(=O)c2ccccc2C)cc1OC,i,-20,-19,-1.7,3,-4.2,-2,0.7,0.68
O=S(=O)(CCN1CCSCC1)c1ccccc1,i,3,8,-2.1,-2,3.4,-2,-1.0,0.66
CCCCN1C(N)=NC[C@@H]1c1ccccc1,.,.,.,.,-3,0.3,-3,1.7,.
Cc1cccc(CN2CCc3c([nH]c4ccccc34)C2C(C)(C)C)n1 (stereo unspecified),i,-8,-10,0.9,24,5.9,13,-32,0.72
C=CCOc1ccc(S(C)(=O)=O)cc1,i,1,6,-1.4,1,-2.2,-2,1.8,0.62
O=C(c1cc(Cl)cc(Cl)c1)N1CCC(=O)N(C(COCc2ccccc2)Cc2ccccc2)CC1 (stereo unspecified),i,-19,-25,-3.2,-5,-0.3,-3,4.5,0.72
O=C(COc1ccc(F)cc1Cl)NC1CCCCCC1,i,-22,-40,3.2,-7,2.8,3,2.6,0.69
Cc1ccc(-c2nc3ccc(Br)cn3c2Cc2cccc(F)c2)cc1,i,-33,-29,-2.9,.,1.4,.,.,.
C[C@]12CC[C@@H]3c4ccc(O)cc4CC[C@H]3[C@@H]1C[C@@H](O)[C@@H]2O[C@@H]1O[C@H](C(=O)O)[C@@H](O)[C@H](O)[C@H]1O,i,5,1,-0.7,3,-0.6,.,2.0,.
O=C(COC(=O)/C=C/c1ccccc1[N+](=O)[O-])NC1CCS(=O)(=O)C1 (stereo unspecified),i,12,4,1.5,-5,-4.3,-8,4.1,0.72

The results go on:
compound,FGF22 binding,Ecoli rRNA inh,Ecoli rRNA inh OD600,Ecoli rRNA inh RFP,B2AR ag,HNF4A DNA FP,ALR H2O2 inh,UCH37 DUB inh,Ecoli growth
O=C(Nc1ccc(F)cc1)Nc1nnc(-c2ccco2)s1,i,-13,3,2.1,0,2.7,-3,2.5,0.65
O=C(N/N=C\c1cccs1)c1sccc1-n1cccc1,i,-28,-45,-6.9,-14,1.4,39,.,.
CCC(=O)Nc1ccc(-c2ccc(NC(=O)CC)c(OC)c2)cc1OC,i,-12,-16,-4.3,-6,5.1,.,3.3,0.69
COc1ccc(OCc2cc(C(=O)N(C)CCC3CCOCC3)no2)c(Cl)c1,i,-3,-15,-3.3,-6,-4.0,-6,0.6,0.67
CCCC1CCc2c(sc(NC(=O)c3cccs3)c2C(N)=O)C1 (stereo unspecified),.,.,.,.,-19,1.4,-1,-256,0.73
O=C(c1ccccn1)N(Cc1ccco1)C1(C(=O)NC2CCCCC2)CCCCC1,.,.,.,.,2,1.4,-2,-1.1,0.69
CC(C)c1c(C(=O)N/N=C/c2ccccc2C(=O)O)nnn1-c1nonc1N,i,2,6,-0.3,-1,4.1,0,.,.
CC(Sc1nnnn1C)C(=O)Nc1ccc2c(c1)OCCO2 (stereo unspecified),i,19,19,0.8,-3,8.5,-1,-2.9,0.65
CC(=O)Nc1ccc(CNc2nc3cc(-c4ccc(F)cc4)sc3c(=O)n2C)cc1,i,8,6,-2.3,.,-2.9,.,.,.
Cc1c(/C=N/NC(=O)c2sc3ccccc3c2Cl)cnn1C,.,.,.,.,-4,1.2,13,.,.
Cc1cccc(C)c1NC(=O)CSc1nc(C)c(CC(=O)c2ccc(Br)cc2)c(C)c1C#N,.,.,.,.,9,-0.5,-3,-1.8,0.8
O=C(COc1cccc2c1CCN(Cc1ccccc1F)C2=O)N1CCOCC1,.,.,.,.,.,.,-52,0.5,0.74
CC(C)c1cc(CN2C(C)COCC2C)cc(C(C)C)c1O (stereo unspecified),.,-5,11,-2.6,-4,-5.4,.,3.7,0.69
